# Assay outcomes (PubChem BioAssay)
# HNF4A DNA FP: change in binding of human HNF4 alpha to DNA; P41235; HNF4a-FITC DNA binding, fluorescence polarization, 1 h; activity change, % at 10 µM; actives 0.3% (n = 360,000); AID 1224865; in the data active means activity change above about 30%, passing the limit was not always enough;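 further: controls were the assay level and a saturating level of protein; the project sought stronger binding though the title names inhibitors; some compounds called inactive have numbers as strong as hits; positive values seem to mean higher polarization but the record does not say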
# Target sequence (P41235 whole entry, looked up): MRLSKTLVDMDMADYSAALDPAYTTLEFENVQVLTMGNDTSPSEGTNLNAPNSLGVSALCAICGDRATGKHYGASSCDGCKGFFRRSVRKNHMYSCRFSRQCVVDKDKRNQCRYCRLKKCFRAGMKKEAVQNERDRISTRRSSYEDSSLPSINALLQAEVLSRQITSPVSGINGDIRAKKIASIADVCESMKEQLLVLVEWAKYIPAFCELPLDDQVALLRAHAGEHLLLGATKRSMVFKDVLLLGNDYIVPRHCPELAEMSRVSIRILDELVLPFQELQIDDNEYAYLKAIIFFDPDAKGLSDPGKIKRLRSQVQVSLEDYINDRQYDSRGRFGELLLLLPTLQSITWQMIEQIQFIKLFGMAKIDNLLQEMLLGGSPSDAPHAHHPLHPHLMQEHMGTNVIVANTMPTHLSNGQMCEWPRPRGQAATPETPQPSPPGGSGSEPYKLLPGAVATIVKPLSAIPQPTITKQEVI
# B2AR ag: agonists of human beta-2 adrenergic receptor inducing internalization. AID 504454. Am2.2-beta2AR cells, FAP receptor internalization, flow cytometry; reference of the scale not given here. response, % (concentration not given with the values). actives 0.43% (n = 340,000);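 active means response above a set limit, near 3 SD of response in nonfluorescent compounds, cut at about 42% in these data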;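 further: stock transfer was 100 nL into about 11 µL; a reference agonist was the positive control; negative values mostly stem from fluorescent compounds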
# Target sequence (P07550 whole entry, looked up): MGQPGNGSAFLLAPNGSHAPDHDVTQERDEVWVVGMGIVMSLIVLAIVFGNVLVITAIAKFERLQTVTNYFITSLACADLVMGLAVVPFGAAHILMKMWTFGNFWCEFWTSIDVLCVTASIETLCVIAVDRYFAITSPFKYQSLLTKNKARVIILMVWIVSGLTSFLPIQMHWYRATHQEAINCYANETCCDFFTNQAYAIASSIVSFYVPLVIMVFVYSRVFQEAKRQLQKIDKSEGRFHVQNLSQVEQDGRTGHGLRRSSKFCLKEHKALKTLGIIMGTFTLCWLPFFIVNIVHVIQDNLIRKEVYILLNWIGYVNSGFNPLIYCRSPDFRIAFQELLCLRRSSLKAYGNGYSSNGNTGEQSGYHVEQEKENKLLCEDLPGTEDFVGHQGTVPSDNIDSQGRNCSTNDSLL
# UCH37 inh: blocks the human deubiquitinase UCH37. inhibition, % (no concentration beside the values). purified proteasome/UCH37, Ub-AMC cleavage fluorescence. AID 588478. actives 0.33% (n = 330,000);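 active means mean of two replicates above 20%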;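 further: 0% = compound-free wells with enzyme and 100% = wells lacking proteasome; stock transfer was 100 nL into about 20 µL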
#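 Test system – human UCH37 enzyme supplied as purified proteasome complex · Incubation – 30 min preincubation with enzyme, 25 min cleavage at room temperature · Detection – AMC fluorescence from Ub-AMC cleavage, excitation 355 nm, emission 460 nm · Benchmarks – no-proteasome wells (full inhibition) and compound-free wells (no inhibition)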
# FGF22 binding: shifts melting point of recombinant human FGF22. recombinant FGF22 thermal shift, SYPRO orange fluorescence; percent of sucrose octasulfate shift, DMSO zero. calls only at 9.99 µM. actives 1.5% (n = 340,000);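 active means melting point raised past a set limit in the mean and every replicate; three in four hits are not shown here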
# Target sequence (Q9HCT0 whole entry, looked up): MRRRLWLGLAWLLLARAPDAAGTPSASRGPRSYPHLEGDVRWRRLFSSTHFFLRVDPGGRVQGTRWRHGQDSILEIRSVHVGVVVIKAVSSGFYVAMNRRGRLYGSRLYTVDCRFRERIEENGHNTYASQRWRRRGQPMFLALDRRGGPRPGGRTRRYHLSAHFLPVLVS
# ALR inh: human ALR oxidase inhibition via reduced H2O2. inhibition, % (concentration not given with the values). purified ALR, DTT oxidation, H2O2 HRP-luminol luminescence. AID 485317. P55789. actives 3.8% (n = 290,000);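 active means mean and each replicate at 75% or more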;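 further: stock transfer was 7.5 nL into about 7.5 µL; 0% = neutral wells and 100% = wells with inactivated enzyme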
# E coli growth: blocks Escherichia coli growth; AID 1053175; OD600, 23 h; hits give low values; actives 0.21% (n = 330,000); OD600 absorbance (concentration not given with the values);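 active means OD600 absorbance below the run mean of sample wells minus 3.6 SD, in any replicate, cut at about 0.56 in these data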;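 further: stock transfer was 300 nL into about 60 µL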
# LANA-H2A inh: blocks KSHV LANA binding to histone H2A/H2B | cell-free LANA-H2A/H2B peptide, fluorescence polarization | inhibition, % (no concentration beside the values) | actives 0.6% (n = 320,000) | AID 2629; in the data active means inhibition mostly above about 10%, no sharp cut-off; inactive means mostly below about 6.7%;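 further: stock transfer was 7.5 nL into about 10 µL; 0% = median of vehicle wells and 100% = median of positive control wells; one replicate is shown; the record names a cut of 25% in any replicate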
# An asterisk follows results filed as active; i = inactive; x = no result given. Only part of the results is shown. The share of hits here may be higher or lower than overall.
SMILES,HNF4A DNA FP,B2AR ag,UCH37 inh,FGF22 binding,ALR inh,E coli growth,LANA-H2A inh
CN(C)S(=O)(=O)c1cc(NC(=O)COC(=O)CC2Sc3ccccc3NC2=O)ccc1Cl (stereo unspecified),-2.4,3.7,1.3,i,-0.2,0.627,3.4
CCc1ccccc1NC(=O)CCOc1ccccc1,3.2,-9.5,5.1,x,-7.9,0.636,3.6
O=C(NCc1ccccc1)c1ccc2nc(-c3ccco3)c(-c3ccco3)nc2c1,-30.1,3.0,-16.5,x,-24.5,0.744,-0.4
CCc1nnc(NC(=O)CSc2nnc3ncccn23)s1,-0.3,-7.9,0.6,i,-16.0,0.701,1.8
COc1ccc(/C=C/C(=O)c2cc(Br)ccc2O)cc1OC,-2.1,-12.1,4.5,i,33.9,0.677,-0.6
Cc1cc(NC(=O)CCCn2ccc([N+](=O)[O-])n2)n(Cc2ccc(F)cc2)n1,3.8,-1.8,4.3,i,x,0.672,-3.1
Cc1ccc(S(=O)(=O)n2nccc2-c2c(-c3ccc(Cl)cc3)noc2C)cc1,0.7,5.2,x,i,x,x,16.9*
COc1cccc(OC)c1OCCOCCn1cnc2ccccc2c1=O,-2.0,-0.4,2.5,x,-8.8,0.655,-5.5
CCC1CCCCN1C(=O)Nc1ccc(F)cc1 (stereo unspecified),-0.3,-1.2,2.8,x,9.3,0.635,0.8
COc1ccc(CCNC(=O)/C(=C/c2cccnc2)NC(=O)c2ccccc2)cc1OC,-0.9,4.9,-3.3,i,-5.7,x,-5.2
O=[N+]([O-])c1c(NCCCO)cc(Sc2ccc(Cl)cc2)c2nonc12,-1.9,29.7,12.5,i,21.7,0.655,4.0
O=C(C1=C[C@H](C2CCCCC2)C[C@H](OCc2ccc(CO)cc2)O1)N1CCN(Cc2ccccc2)CC1,0.2,1.4,3.0,i,x,x,-7.7
CCCCN(C(=O)c1cc(CN2C(=O)c3ccccc3C2=O)ccc1OC)c1c(N)n(CC(C)C)c(=O)[nH]c1=O,-0.6,26.0,-2.9,i,x,0.703,x
Nc1ccnn1Cc1cccs1,0.2,-24.4,2.4,i,-34.0,0.688,-0.5
COc1ccc(F)cc1S(=O)(=O)Nc1ccc2c(c1)OCO2,-1.0,4.2,1.0,x,28.3,0.658,0.7
CN(C)S(=O)(=O)c1ccc(Cl)c(C(=O)Nc2cccc([N+](=O)[O-])c2)c1,-1.7,-10.1,2.8,i,-8.0,0.698,-0.3
Cc1nn(-c2nccs2)c2c1C(=O)CC(C)(C)C2Br (stereo unspecified),-8.0,3.6,2.7,i,x,0.67,x
O=S(=O)(c1ccc(C2CCCCC2)cc1)N1CCCC1,1.4,-1.5,3.6,x,-1.6,0.682,1.0
O=C(CSc1nncs1)Nc1nccs1,2.0,2.1,-3.6,i,-5.1,0.605,2.2
COCc1cc(C(C)=O)ccc1OCC(=O)Nc1ccc(NC(C)=O)cc1,0.4,-4.3,5.3,i,-5.9,0.673,-0.5
Cc1ccc(S(=O)(=O)N2CCC(C(N)=O)CC2)c(C)c1C,2.2,-3.7,2.0,i,-7.0,0.66,-0.7
c1ccc2c(-n3cnnn3)cccc2c1,1.1,-6.5,0.5,x,-12.5,0.709,-3.1
CCc1ccc2[nH]c(C(=O)Nc3ccc(C)c(F)c3)cc2c1,-0.3,1.9,-0.6,i,-4.9,0.686,-2.0
Cc1nc(NC(=O)CN2CCN(c3ccccc3F)CC2)sc1C(=O)N(C)C,-1.2,-2.2,0.7,i,-3.3,0.64,0.8
CC(OC(=O)CCN1C(=O)C2CC=CCC2C1=O)C(=O)Nc1cccc(C#N)c1 (stereo unspecified),-0.3,9.1,1.8,i,1.4,0.684,4.6
# (further entries)
SMILES,HNF4A DNA FP,B2AR ag,UCH37 inh,FGF22 binding,ALR inh,E coli growth,LANA-H2A inh
O=C(Nc1ccc(N2CCCC2=O)cc1)c1cncc(Br)c1,-0.2,-3.7,-7.9,i,0.3,0.703,-5.4
O=C(CSc1ncccn1)Nc1cc(Cl)ccc1[N+](=O)[O-],-3.8,-8.1,1.1,i,20.1,0.627,1.4
C=CC[C@H](CC(=O)NCCO)C(=O)NC[C@@H](OC(=O)[C@@H](CC=C)CC(=O)OC(C)(C)C)c1ccccc1,-0.9,-0.5,0.5,i,-3.5,0.747,1.6
COc1ccccc1N1C[C@@H]2C[C@@H](c3ccco3)N3CCC[C@@]23C1=O,5.1,4.3,2.8,i,-1.6,0.647,-2.4
Cc1cc2[nH]c(=O)c(=O)[nH]c2cc1S(=O)(=O)N(C)C1CCCCC1,2.2,6.3,-3.5,i,8.6,0.755,2.8
COC(=O)[C@@H]1C[C@H]2CC[C@H](O)C[C@H]2N1Cc1ccc(C)s1,-2.2,2.8,1.6,i,x,x,-0.2
COc1cc(C)c(Br)cc1S(=O)(=O)NCc1cccs1,-0.6,-4.0,-0.6,i,9.1,0.712,6.3
Cc1cc(C)n2nc(CC(=O)NC3CCCCCCC3)nc2n1,-1.2,-8.8,1.0,i,-5.7,0.722,-4.4
COCc1nnc(NC(=O)c2cccs2)s1,1.3,-6.3,1.8,x,-2.7,0.674,-3.0
CSCCC(NC(=O)c1ccccc1)C(=O)N1CCN(C(c2ccccc2)c2ccccc2)CC1 (stereo unspecified),2.0,4.5,0.0,i,-10.3,0.733,1.4
COCCN1Cc2cccc(C(=O)Nc3cccc(C)c3C)c2C1=O,-2.2,-8.6,0.9,x,0.5,0.686,1.0
O=C(C[n+]1cn(C(F)F)c2ccccc21)c1ccc(Br)cc1,0.1,0.8,6.1,i,28.0,0.712,-1.6
CN1C(=O)C(C)(C)c2cc(S(=O)(=O)N3CCCC(C(=O)Nc4ccc(Cl)cc4)C3)ccc21 (stereo unspecified),0.0,0.2,7.3,i,0.1,0.69,-1.7
CC1(C)CC(=O)CC(C2(O)C(=O)N(Cc3ccccc3)c3ccccc32)O1 (stereo unspecified),0.0,9.2,2.1,i,3.9,0.746,2.3
O=c1oc2ccccc2cc1-c1ccc(O)cc1,-0.2,-8.3,-200.4,i,94.5*,0.682,-2.7
Cc1ccc(C(=O)NC(=S)Nc2ccc(-c3cc4ccccc4oc3=O)cc2)c(C)c1,-0.1,-0.9,-2.4,x,-22.9,0.752,-3.4
O=C(CSc1ccccc1)Nc1ccc2c(c1)C(=O)NC2=O,-0.7,4.4,-0.9,i,-5.6,0.684,-6.3
CC(C)(C)OC(=O)C[C@H]1C/C=C\C[C@@H](CC(=O)N(CCO)Cc2ccccc2)C(=O)N2CCC[C@@H]2COC1=O,9.7,2.4,-0.1,i,-8.1,x,-2.0
Cc1ccccc1OCC(=O)N/N=C1\CCOc2c(C)cccc21,-0.1,2.1,x,i,-12.1,x,0.1
CCCNC(=O)COC(=O)c1cc2c(=O)n3ccccc3nc2s1,-0.3,-5.6,i,x,x,0.684,-1.6
CCN(CC)C(=O)COc1ccc(/C(C)=N/NC(=O)c2ccccc2-n2cccc2)cc1,2.1,2.2,x,i,-0.5,x,-0.4
CCCOc1ccc(N2CC(C(=O)NC3=NCCS3)CC2=O)cc1 (stereo unspecified),2.6,-5.1,-1.1,x,-3.9,0.667,-2.2
CC(/C=C1\SC(=S)N(c2ccc(C(=O)O)cc2)C1=O)=C\c1ccccc1,-15.2,1.8,x,i,x,x,1.4
N#Cc1c(Cl)nsc1NCCN1CCOCC1,3.8,-2.6,0.8,i,0.4,0.658,0.9
COc1ccc(C23CC4CC(CC(C4)C2)C3)cc1C(=O)NCCN(C)C,-1.1,27.1,3.8,i,-5.1,0.651,3.6
# Next part:
SMILES,HNF4A DNA FP,B2AR ag,UCH37 inh,FGF22 binding,ALR inh,E coli growth,LANA-H2A inh
CCCn1cnc2c(=O)oc3ccccc3c21,0.8,9.0,1.7,x,5.2,0.663,1.3
COCCn1c(C)cc(C(=O)COC(=O)/C=C/c2ccc(OC)cc2OC)c1C,4.2,9.3,0.2,i,-3.7,0.744,-4.4
COc1cccc(Nc2nc(-c3cccc(N4C(=O)c5ccccc5C4=O)c3)cs2)c1,2.4,7.3,3.8,x,2.0,0.74,-4.5
Cc1cc2ncn(C(=O)N3CCCCCC3)c2cc1C,0.4,12.7,3.3,x,-3.0,0.703,-0.5
CC1=NNC(=O)C1CC(=O)N/N=C(\C)c1ccco1 (stereo unspecified),1.1,-1.2,x,x,33.5,x,5.0
CC1=[N+](C)c2ccc3ccccc3c2C1(C)C,1.9,14.1,-6.0,i,-45.9,0.725,-5.9
Cc1cc(=O)n2nc(N3CCC(C(=O)N4CCN(Cc5ccccc5)CC4)CC3)sc2n1,1.8,1.4,23.6*,x,-5.2,0.697,1.1
CC(C)NC(=O)NC(=O)CSc1ccc(S(=O)(=O)N2CCCC2)cn1,0.7,2.8,3.5,i,x,0.709,-2.4
Cc1cc(O)ccc1N/C=C1\CCCC1=O,1.0,-6.3,17.3,x,74.3,0.686,2.2
O=C(NCCN1CCOCC1)/C(=C/c1ccc(Cl)cc1)NC(=O)c1ccccc1,4.0,-1.7,-0.8,i,-16.2,0.66,-0.1
Cc1ccc(C(=O)N2CCCC2)cc1Br,1.8,-4.3,3.4,x,x,0.702,-1.4
COC(c1ccccc1)c1nnc(CCC(=O)NCCCc2ccccc2)o1 (stereo unspecified),4.2,-5.4,-0.5,i,-2.3,0.672,1.6
Cc1ccc(S(=O)(=O)N2CCN(C(C)C(=O)Nc3ccccc3-c3ccccc3)CC2)cc1 (stereo unspecified),3.7,-2.2,1.2,i,-9.9,0.725,2.1
Cc1cccc(OCCC(=O)NCC(=O)Nc2c(C)cccc2C)c1,-1.2,-3.9,-2.2,i,-5.3,0.705,4.9
COc1ccc(CC(=O)Nc2ccc(S(=O)(=O)N3CCCCC3)cc2)cc1OC,4.0,-9.3,1.5,i,-3.6,0.692,-9.0
O=C(N/N=C/c1cc(Cl)cc([N+](=O)[O-])c1O)C(O)(c1ccccc1)c1ccccc1,-0.6,7.8,x,i,1.2,x,6.8
Nc1oc2ccccc2c(=O)c1-c1ccc2c(c1)OCO2,-1.6,-1.1,1.9,i,-4.7,0.637,-4.9
CC1CCN(C(=O)C2CCCN2S(=O)(=O)c2ccc(Cl)cc2)CC1 (stereo unspecified),1.7,0.8,5.7,i,-6.6,0.715,-1.4
Cc1c(N=Cc2cccs2)c(=O)n(-c2ccccc2)n1C,1.6,-1.8,10.0,i,63.5,0.685,7.8
CSCC(NS(=O)(=O)c1ccc(C)cc1)C(=O)O (stereo unspecified),-3.0,-5.6,1.4,i,19.4,0.684,4.1
CCCCC(=O)NC(c1ccccc1)c1ccc2cccnc2c1O (stereo unspecified),5.2,9.5,x,i,-2.2,x,6.5
CC1CCCC(NC(=O)COC(=O)c2cccs2)C1C (stereo unspecified),4.3,-1.8,-0.2,i,0.9,0.707,1.0
O=S(=O)(NCC(c1ccco1)N1CCN(c2ccccc2)CC1)c1ccc(F)cc1 (stereo unspecified),0.2,-4.5,1.5,x,16.1,0.696,3.0
Cc1nnc(Sc2nc3ccccc3o2)c2ccccc12,2.1,3.5,4.8,x,97.5*,0.688,-4.5
O=C(C1CCC(CNS(=O)(=O)c2cccs2)CC1)N1CCN(c2ccc(F)cc2)CC1 (stereo unspecified),0.4,3.5,3.0,i,-0.7,0.637,1.1
O=C(Nc1ccc(Cl)cc1)C1c2cccc[n+]2CC(=O)N1Cc1ccc2c(c1)OCO2 (stereo unspecified),4.6,-3.0,4.6,i,-13.6,0.721,4.3
CCOc1ccc(-c2ccc(SCC(=O)N3CCOCC3)nn2)cc1,1.0,1.5,2.4,i,-5.6,0.709,3.7
O=C1Cc2ccccc2Sc2cc(OCCCN3CCCCC3)ccc21,0.6,3.6,-3.5,x,-21.0,0.652,-4.9
COc1ccc(CN(C)C(=O)COC(=O)c2cnc(Cl)c(Cl)c2)cc1,3.0,4.9,2.0,i,0.9,0.654,2.6
COc1ccc(S(=O)(=O)NC(C)C(=O)Nc2cccc(C(C)=O)c2)cc1 (stereo unspecified),-4.2,-10.0,4.5,x,x,0.759,6.0
